Assay outcomes from PubChem.
CapD inh = inhibitors of Bacillus anthracis CapD enzyme. z-score (test concentration not listed). purified CapD enzyme, fluorescence intensity read-out; stronger effect = lower value; some hits fall short of the stated cut. 140,000 compounds, 0.23% hits. AID 492967;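 active means z-score under -4 in either of two replicates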;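 further: stock transfer was 100 nL into about 40 µL; score is relative to mean and spread of the plate; one replicate is shown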
AID504770 = growth inhibitors of E. coli YBA685 in a screen for V. cholerae RctB (chromosome II replication) inhibitors; 130,000 compounds, 0.27% hits; E. coli YBA685 rctB-dependent plasmid, OD600 growth, 3 h; stronger effect = lower value; z-score (no concentration beside the values);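 active means z-score under -2 on both plates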;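 further: wells of about 30 µL received 100 nL stock; score is relative to mean and SD of the test wells; the first replicate is given; strong numbers were not always called active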
Numbers without * were called inactive; x = no result given.

Structure	CapD inh	AID504770
c1ccc(CNC2=NCCS2)cc1	-0.51	-1.1
O/N=C1/CC(O)(C(F)(F)F)Oc2ccccc21 (centres undefined)	0.095	-1.8
Cc1oc(-c2cccc(C(F)(F)F)c2)cc1CO	x	0.25
Cc1nc2ccccn2c1-c1ccnn1C(=O)c1ccc(Cl)cc1	11	-0.7
COc1ccc2c(c1)CC/C(=C/c1ccco1)C2=O	0.075	0.1
CN(C)C(CNC(=O)c1ccc2ncsc2c1)c1cccs1 (centres undefined)	x	1.9
Cc1cccc(C2(c3cccc(C)c3)CC2C(=O)Nc2ccc(C)cc2C)c1 (centres undefined)	-0.26	x
Oc1ccc(-c2n[nH]c(C(F)(F)F)c2-c2ccccc2)c(O)c1	x	-1.5
COc1cccc2cccc(/C=N/n3cnnc3)c12	4	0.9
COc1ccc(OC)c(C2C(C(=O)Nc3ccccn3)=C(C)Nc3ncnn32)c1 (centres undefined)	0.18	x
COc1ccc(-c2noc(CC(=O)N(Cc3ccco3)C3CCCCC3)n2)cc1	-0.08	-0.25
CC(=O)N1N=C(Cn2nc(C)cc2C)OC1(C)c1ccccc1 (centres undefined)	-0.035	-0.35
N#C/C(=C\c1c[nH]c2ccccc12)C(N)=O	x	-0.05
Cc1ccc(-n2c(=O)c3ccc(C(=O)NCc4ccco4)cc3n(Cc3ccccc3F)c2=O)cc1	-1.2	0.55
COc1ccc(C=C2CCC(=O)CC2)cc1	0.51	x
COC(=O)C1=C(C)Nc2ncnn2C1c1ccccn1 (centres undefined)	-0.41	x
Nc1nonc1-n1nnc(C(=O)O)c1CN1CCOCC1	-0.34	x
Cc1c(C(=O)Nc2ccc(F)cc2Cl)sc2ncn(CC(=O)Nc3cccc(C(F)(F)F)c3)c(=O)c12	0	x
Cn1c(CN2CCCCC2)c(C#N)c2ccccc21	-0.2	-0.65
CC(CC(=O)O)CC(=O)Nc1ccc(C(=O)O)cc1 (centres undefined)	-0.84	0.3
Cc1ccc(OC(C)(C)C(=O)Nc2ccc(Oc3ccc(F)cc3F)nc2)c2c1CCC2	0.55	1
O=c1c(Cc2c(F)cccc2Cl)c(O)ccn1CCCn1ccnc1	0.16	x
CCOc1ccccc1/C=N\n1cnnc1	-0.58	0.7
COc1ccccc1/C=C(/C(=O)NCCc1ccccc1)c1ccccc1	2.2	x
O=C(O)c1cc([N+](=O)[O-])ccc1Sc1ccc([N+](=O)[O-])cc1C(=O)O	-1.4	x
Cn1c(O)c(/C=N/Nc2ncc(C(F)(F)F)cc2Cl)c(=O)n(C)c1=O	0.57	x
CCN1CCN(Cc2ccc(NC(=O)Nc3cc(F)ccc3F)cc2)CC1	0.14	-0.3
O=C(Cc1ccc2c(c1)OCO2)c1ccccc1	0.035	-0.4
Cc1onc(-c2ccccc2Cl)c1-c1nc(-c2ccc(Br)cc2)no1	4.7	0.6
COc1cc(-c2nc3ccccc3c(=O)n2NC(=O)COc2cccc(C)c2)cc(OC)c1OC	0.79	x
C=CCNc1nn(-c2nc3ccccc3s2)c2c1CCCC2	0.22	0.1
Cc1onc(-c2c(Cl)cccc2Cl)c1NC(=O)N1CCCN2C(=O)c3ccccc3C12 (centres undefined)	0.78	0.25
Cc1ccc(CNC(=O)CSc2nc3cnn(C)c3c(=O)n2Cc2ccccc2)cc1	-0.74	-0.4
COc1ccc(-c2nnc3ccc(SCC(=O)N4CCCCC4)nn23)cc1	0.68	-0.55
OC(CNCc1ccc(F)cc1)(c1ccc(Cl)cc1)c1ccc(Cl)cc1	-0.56	x
COC(=O)CSc1nc2sc3c(c2c(=O)n1-c1ccc(OC)cc1)CCC3	-1.2	x
COC(=O)c1ccc2c(=O)n(CCc3ccc(S(N)(=O)=O)cc3)c(SCc3cccc(Cl)c3)nc2c1	0.59	x
Cc1ccc2c(c1)N(C(=O)c1cccc(C(F)(F)F)c1)C(C(C)(C)C)CO2 (centres undefined)	0.27	x
CCOC(=O)c1c(C)[nH]c(C)c1C(=O)COC(=O)c1ccc(S(=O)(=O)N(CC)CC)cc1	x	-0.75
COc1cc(CC(=O)O)ccc1OCc1ccccc1	1.7	-0.15
O=c1oc2cc(OCc3ccccc3F)ccc2c2c1CCC2	3.4	-0.65
CCOC(=O)c1ccc(N2C=C(C(=O)OC)C(c3cccc(O)c3)C(C(=O)OC)=C2)cc1	41	-0.35
Cc1ccc(C)c(Cn2c(N3CCC(C(=O)NCc4ccco4)CC3)nc3ccccc32)c1	0.45	-0.3
O=C1/C(=C/c2ccc(-c3cc(Cl)ccc3Cl)o2)C=C(c2ccccc2)N1c1cccc(I)c1	0.53	x
CC(C)(C)OC(=O)NC1CCN(C(=O)OCCc2ccc(Cl)cc2)C1 (centres undefined)	0.13	x
O=C(O)CN1C(=O)/C(=C2\SC(N3CCOCC3)=NC2=O)c2cc(Br)ccc21	-0.46	x
COc1ccc2c(C)cc(SCc3cn4ccsc4n3)nc2c1	x	0.05
O=C(Cn1nc(-c2ccc(Cl)cc2)c2ccccc2c1=O)NCc1cccnc1	-0.6	-0.3
CCn1c2ccccc2c2cc(CN3CCN(C(=O)c4ccc(OC)c(OCc5ccccc5)c4)CC3)ccc21	14	x
O=S1(=O)N=C(N2CCOCC2)c2ccccc21	0.28	-0.4
COc1cccc(NC(=O)c2oc3ccccc3c2NC(=O)c2ccc3c(c2)OCO3)c1	x	-1
COc1ccc2c(CCNC(=O)OCCc3ccc(Cl)cc3Cl)c[nH]c2c1	0.57	x
CC(=O)Nc1cccc(NC(=O)c2nc(-c3ccccc3)oc2C)c1	x	0.7
COc1cccc(C2(O)CCSc3ccccc32)c1 (centres undefined)	-0.62	-0.35
CCOC(=O)c1cn(C(=O)CCSc2ccc(OC)cc2)nc1N	0.015	0
CCn1cc(C(=O)N2CCOCC2)c(=O)c2cc(S(=O)(=O)N3CCc4ccccc4C3)ccc21	-0.15	0.4

(list continues)
Structure	CapD inh	AID504770
C=CCSC1=NC2(CC(c3ccccc3)c3ccc(O)c(O)c3O2)CC(C)(C)N1 (centres undefined)	-0.32	x
C=CCSc1nnc2n(-c3ccc(C)cc3)c(=O)c3c4c(sc3n12)CCC4	-0.27	x
CCCN1CCC(N(C(=O)c2ccc(NC(=O)c3cccc(C(F)(F)F)c3)cc2)C2CC2)CC1	-0.48	x
N#CCN(CC#N)C(=O)c1ccc(C(=O)N(CC#N)CC#N)cc1	-0.36	-0.2
COc1cc(-c2nc3sc4c(c3c(=O)o2)CCCC4)cc(OC)c1OC	-0.14	-0.05
CCCOc1ccccc1C1C(C(=O)OC)=CN(C2CCCC2)C=C1C(=O)OC	33	2.3
Cc1nccc(-c2ccc(Br)cc2)n1	-0.25	1
CCOC(=O)N1CCN(C(=O)/C(=C/c2ccccc2Cl)c2ccccc2)CC1	71	0.85
Cc1nc(-c2cccs2)sc1-c1ccnn1C(=O)C1CC1	90	0.6
CCc1nnc(SCC(=O)N2c3ccccc3Sc3ccccc32)n1N	-0.41	-1.4
O=C(O)CSCC(=O)Nc1ccc(Cl)cc1Cl	-0.005	-0.9
CCCCC(C)C(N)=O (centres undefined)	-0.22	-0.8
Cc1ccc(Cl)cc1N1C(=O)CC(N2CCC(C(N)=O)CC2)C1=O (centres undefined)	-0.67	1.5
CC1=C(C(=O)OCCOC(C)C)C(c2ccccc2OCc2ccccc2)NC(=O)N1 (centres undefined)	-0.73	x
O=c1[nH]c2cc(C(F)(F)F)cc(Br)c2[nH]c1=O	5.3	0.2
CCN(Cc1ccccc1)C(=O)CSc1nncn1C	x	0.1

Random excerpt: four records from the list.
Structure	CapD inh	AID504770
O=C(O)CSCC(=O)Nc1ccc(Cl)cc1Cl	-0.005	-0.9
C=CCSc1nnc2n(-c3ccc(C)cc3)c(=O)c3c4c(sc3n12)CCC4	-0.27	x
CCOC(=O)c1c(C)[nH]c(C)c1C(=O)COC(=O)c1ccc(S(=O)(=O)N(CC)CC)cc1	x	-0.75
CC(C)(C)OC(=O)NC1CCN(C(=O)OCCc2ccc(Cl)cc2)C1 (centres undefined)	0.13	x

Full records as entered above:
Entry for `CCN(Cc1ccccc1)C(=O)CSc1nncn1C` → CapD inh: x; AID504770: 0.1
Entry for `O=C(O)CSCC(=O)Nc1ccc(Cl)cc1Cl` → CapD inh: -0.005; AID504770: -0.9

Continued.
Structure	CapD inh	AID504770
O=C(CON1C(=O)c2ccccc2C1=O)c1ccc(O)cc1O	-1.5	0.45
CCc1ccc(CNC(=O)C2CCN(S(=O)(=O)N3CCCC3)CC2)cc1	1.7	0.85
CCNc1nc(NC(C)C)nc(OCCNS(=O)(=O)c2cc(C)ccc2C)n1	0.57	x
CC(C)(C)OC(=O)N1CCN(C2CC(=O)N(CCc3ccccc3)C2=O)CC1 (centres undefined)	0.23	0.9
COc1ccc(OCCC(=O)NN)cc1	-0.54	-0.9
O=C(Nc1ccc(C(F)(F)F)cc1)Nc1ccccc1C(=O)O	9.4	x
CCOc1ccccc1N=c1ssc2c1-c1cc(C)c(C)cc1NC2(C)C	-1.6	x
CC(C)CN(C(=O)CSc1nccn1C)C1CCS(=O)(=O)C1 (centres undefined)	x	-0.5
CCOc1ccc2nc(NC(=O)c3ccc(C(C)(C)C)cc3)sc2c1	0.31	0
O=C(Nc1ncccn1)c1ccc(Cl)cc1	-0.07	x
CC1=C(C(=O)OCCCCCl)C(c2cc3c(cc2Br)OCO3)NC(=O)N1 (centres undefined)	0.15	x
CC(C)Cc1cc(-c2ccc(F)cc2)c(C#N)c(N)n1	10	0.3
Cc1cc(C(=O)CSCc2ccc(Cl)c(Cl)c2)c(C)n1Cc1ccco1	x	2.2
Cc1ccc(CN2C(=O)CCC2C(=O)NCc2ccco2)cc1 (centres undefined)	-0.73	-0.35
Cc1cc(/C=C/C(=O)O)c(C)n1-c1ccccc1	x	0.75
COC(=O)c1ccc(COc2ccccc2)o1	x	-0.15
CCOC(=O)C1=C(C)NC2=C(C(=O)C(C(=O)OCC)C(c3ccc(OC)cc3)C2)C1c1ccccc1OC (centres undefined)	7	x
Cc1ccc2c(n1)sc1c(=O)n(Cc3ccccc3)nnc12	-0.56	-0.1
CSC1=NC2(CC(c3ccccc3)Oc3cc(O)ccc32)CC(C)(C)N1 (centres undefined)	0.11	-0.3
O=C(COc1c(F)c(F)cc(F)c1F)C12CC3CC(CC(C3)C1)C2	x	-1.4
CCOC(=O)C1CCN(C(=S)Nc2ccccc2OC(F)(F)F)CC1	-0.16	x
COc1cccc(-c2ccc(C#N)c(OC(=O)c3c(Cl)cccc3Cl)n2)c1	2.9	x
N#Cc1ccc(-c2ccc(Cl)cc2)nc1Oc1cccc(C(F)(F)F)c1	35	x
O=C(N/N=C/c1ccc(Br)cc1)c1ccccc1-n1cccc1	x	0.4
CCc1ccc(-n2c(=S)sc3c(=O)[nH]c(SCC(=O)O)nc32)cc1	-4.3*	x
CCOc1ccc2oc(=O)cc(CN(Cc3ccco3)CC3CCCO3)c2c1 (centres undefined)	1.9	-2
Nc1[nH]n(-c2ccccc2)c(=O)c1N=Nc1ccc(Cl)cc1	-0.53	-0.05
CCOC(=O)c1[nH]nc2c1COc1ccccc1-2	0.49	x
O=C(Cc1ccccc1)N1CCC(c2ccccc2)=N1	0.73	-1.1
CCOc1ccc2nc(NN)sc2c1	0.32	-0.75
COC(=O)C1=C(OS(=O)(=O)c2ccc(C)cc2)CSC1	-0.33	x
CCCCc1ccc(Oc2cc(N3CCOCC3)nc(-c3ccccc3)n2)cc1	-0.2	-0.05
OCCNc1nc(NCCO)nc(Nc2nc(-c3ccccc3)cs2)n1	-0.68	x
COC(=O)c1ccn(COc2ccccc2Cl)n1	0.11	-2.6
Cc1nnc(NS(=O)(=O)c2ccc(OC(F)(F)F)cc2)s1	0.13	1.1
CCOc1ccc(NC(=O)CN(C2=NC3CS(=O)(=O)CC3S2)c2ccccc2)cc1 (centres undefined)	-0.73	0.35
O=CNCc1nc2ccccc2n1Cc1ccccc1	0.83	-0.3
OCCN1CNC(=S)NC1	-0.7	1.7
Cc1ccc(-n2nc(C)cc2NC(=O)CSc2nnc(C3COc4ccccc4O3)n2C)cc1 (centres undefined)	x	0.2
CCCCC1(C(=O)OCC)CC(CSC(=N)N)OC1=O (centres undefined)	-0.79	1.6
CCn1cc(C(=O)NCCCN2CCN(c3cccc(Cl)c3)CC2)c(=O)c2cc(S(=O)(=O)N(C)C)ccc21	-0.95	-1.2
Cc1cc2c(n1-c1ccc(Br)cc1)CC(C)(C)CC2=O	0.52	0.25
CNc1nc(NCc2ccco2)c2ccccc2n1	x	-1.1
Nc1ccc2c3c(cccc13)C(=O)N(c1ccccc1)C2=O	3	0.6
COc1c(CO)cc(C)cc1CO	-0.07	-0.35
COc1cc(OC)nc(CSCCNC(=O)CN2CCc3ccccc3C2)n1	-0.14	x
O=C(NC1CCCCC1)C1CC1c1ccccc1 (centres undefined)	0.12	1.2
c1cc(N2CCCCC2)nnc1N1CCCCC1	0.14	2.3
CCN(C(=O)CO)c1c(N)n(Cc2ccccc2)c(=O)n(CC(=O)Nc2ccc(C)c(C)c2)c1=O	x	0.65
CCOc1ccc(C(=O)Nc2cc3[nH]c(=O)[nH]c3cc2C)cc1OCC	0.12	0.25
CC(C)N(C(=S)NC(=O)C1CC1)c1ccccn1	x	-0.2
O=C(Nc1ccccn1)NC12CC3CC(CC(C3)C1)C2	x	2.8
Cn1c(=O)c2c(SCc3cccc(C(F)(F)F)c3)nc(-c3ccco3)nc2n(C)c1=O	0.53	0
